# NOMO-1 viab: STK33 inhibitor candidate reducing NOMO-1 cell viability; NOMO-1 AML viability, CellTiter-Glo luminescence, 72 h; inhibition, % (concentration not given with the values); hit rate 7.5% among 37,000;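 active = most replicates above 80%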;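 note: wells of about 30 µL received 25 nL stock; 0% = median of vehicle wells and 100% = reference inhibitor level; the first replicate is given; inactives centre near 10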
# Numbers without * were called inactive.
SMILES | NOMO-1 viab
Cc1noc(C)c1S(=O)(=O)N(C)C[C@H]1Oc2ccc(NC(=O)Cc3cn(C)c4ccccc34)cc2CC(=O)N([C@@H](C)CO)C[C@H]1C | 0.9
CCOC(=O)C(C#N)C1(c2c(C)[nH]n(-c3ccccc3)c2=O)C(=O)N(c2ccccc2)N=C1C (configuration not stated) | 73.6
COc1ccc(NC(=O)Nc2ccc3c(c2)C(=O)N([C@H](C)CO)C[C@@H](C)[C@H](CN(C)C(=O)NC2CCCCC2)O3)cc1 | -4.7
COc1ccc(NC(=O)N(C)C[C@H]2Oc3ccc(NC(=O)C4CCCCC4)cc3CC(=O)N([C@@H](C)CO)C[C@H]2C)cc1 | 1.6
COc1ccc(CN(C)C[C@@H]2OCCCC[C@@H](C)Oc3ccc(N(C)C)cc3C(=O)N([C@H](C)CO)C[C@@H]2C)cc1 | 9.9
COC(=O)c1ccccc1NC(=O)COc1ccc(C)c(C)c1 | 2.9
CC(C)NC(=O)N(C)C[C@@H]1Oc2c(NC(=O)CCCCCC(=O)Nc3ccccc3N)cccc2C(=O)N([C@@H](C)CO)C[C@@H]1C | -0.6
COc1ccc(S(=O)(=O)N(C)C[C@H]2Oc3ccc(NC(=O)Nc4cccc5ccccc45)cc3CC(=O)N([C@@H](C)CO)C[C@@H]2C)cc1 | -25.9
O=C(O)CCC(=O)OCc1ccccc1 | 18.6
C[C@@H]1CCCCO[C@@H](CN(C)Cc2ccncc2)[C@@H](C)CN([C@H](C)CO)C(=O)c2cc(NS(=O)(=O)c3ccc(Cl)cc3)ccc2O1 | 17.3
COc1ccc(OC)c(NC(=O)COc2ccc(C(C)(C)C)cc2)c1 | -13.2
NC(=O)CSc1oc(-c2ccco2)nc1S(=O)(=O)c1ccccc1 | -5.7
CC(=O)c1c(C)nn2c3ccccc3n(CCN3CCOCC3)c12 | -3.0
Cc1ccc(NS(=O)(=O)c2cccc(C(=O)Nc3ccccc3C(=O)O)c2)cc1C | 14.7
CC1(C)CC[C@]2(C(=O)O[C@@H]3O[C@H](CO)[C@@H](O)[C@H](O)[C@H]3O)CC[C@]3(C)C(=CCC4[C@@]5(C)CC[C@@H](O[C@@H]6O[C@H](C(=O)O)[C@@H](O[C@@H]7OC[C@@H](O)[C@H](O)[C@H]7O)[C@H](O[C@@H]7OC[C@](O)(CO)[C@H]7O)[C@H]6O)C(C)(C)C5CC[C@]43C)C2C1 (some centres not stated) | -1.4
O=C(Nc1ccc(NS(=O)(=O)c2cccc(C(=O)Nc3ccc(Br)cc3)c2)cc1)c1ccccc1 | 28.1
C[C@H](CO)N1C[C@H](C)[C@@H](CN(C)C(=O)Nc2ccc3c(c2)OCO3)Oc2ccc(NC(=O)C3CC3)cc2C1=O | 20.0
CCCCn1c(O)c(C#N)c(C)cc1=O | 1.1
CCC1C(=O)O[C@]23C=C[C@@H]4C(C(=O)O)=CO[C@H](OC12)[C@@H]43 (some centres not stated) | 46.4
COc1ccc(NC(=O)Nc2cccc3c2O[C@H](CN(C)S(=O)(=O)c2ccc(OC)cc2)[C@@H](C)CN([C@@H](C)CO)C3=O)cc1 | 12.4
O=C(CN1C(=O)CNC1=O)Nc1cccc2ccccc12 | -6.7
Cn1c(=O)n(C)c2cc(S(=O)(=O)NCc3ccco3)ccc21 | -0.9
COc1ccc(NC(=O)C(Cc2ccccc2)N2C(=O)c3ccccc3C2=O)cc1 (configuration not stated) | 4.2
C[C@H](CO)N1C[C@H](C)[C@H](CN(C)S(=O)(=O)c2cn(C)cn2)Oc2c(NC(=O)c3ccncc3)cccc2C1=O | 29.1
COc1ccc(CN(C)C[C@H]2Oc3c(NC(=O)NC4CCCCC4)cccc3C(=O)N([C@H](C)CO)C[C@@H]2C)cc1 | 68.5
C[C@H]1CN([C@@H](C)CO)C(=O)Cc2cc(NC(=O)Nc3ccc4c(c3)OCO4)ccc2O[C@@H]1CN(C)C(=O)Nc1ccc(C(F)(F)F)cc1 | -0.9
CCn1c(SCC(=O)Nc2c(Cl)cc(Cl)cc2Cl)nnc1-c1ccccc1F | -9.8
O=[N+]([O-])c1ccc(N2CCN(S(=O)(=O)c3ccc(F)cc3)CC2)cc1NCc1ccco1 | 1.0
C[C@H]1CN([C@@H](C)CO)C(=O)c2cc(NC(=O)Cn3cnnn3)ccc2O[C@H]1CN(C)Cc1ccncc1 | 14.1
CCOC(=O)c1ccc(NC(=O)CN2C(=O)COc3ccc(Cl)cc32)cc1 | 9.2
O=C(O)c1cccc2cccc(S(=O)c3cccc4cccc(CO)c34)c12 (configuration not stated) | 3.3
C[C@H](CO)N1C[C@H](C)[C@H](CN(C)S(=O)(=O)c2cccs2)Oc2ccc(NC(=O)Nc3ccc(F)cc3)cc2CC1=O | 25.0
COc1ccc(S(=O)(=O)Nc2ccc3c(c2)C(=O)N([C@H](C)CO)C[C@H](C)[C@H](CN(C)C(=O)NC2CCCCC2)OCCCC[C@@H](C)O3)cc1 | -9.6
C[C@H]1CN([C@@H](C)CO)C(=O)Cc2cc(NS(=O)(=O)c3cccs3)ccc2O[C@@H]1CN(C)C(=O)Nc1ccc2c(c1)OCO2 | 0.6
COc1ccc(C2=NN(S(C)(=O)=O)C(c3ccc(C)cc3)C2)cc1 (configuration not stated) | 45.3
CCOC(=O)C1=NNCC1C(=O)OCC (configuration not stated) | 96.0*
Cc1nc(SCC(=O)Nc2cccc(F)c2)c2c(C)c(C)sc2n1 | 38.9
Cc1ccc(S(=O)(=O)N(C)C[C@H]2Oc3c(NS(=O)(=O)c4ccc(Cl)cc4)cccc3C(=O)N([C@@H](C)CO)C[C@H]2C)cc1 | 37.9
Cc1ccc(S(=O)(=O)Nc2cccc3c2O[C@@H](CN(C)C(=O)Nc2ccc(C(F)(F)F)cc2)[C@H](C)CN([C@H](C)CO)C3=O)cc1 | 26.1
C[C@@H]1CN([C@H](C)CO)C(=O)c2cc(NC(=O)c3ccncc3)ccc2O[C@H]1CN(C)S(=O)(=O)c1cccs1 | 5.0

# Some values from the entries so far:
# Under NOMO-1 viab, O=C(O)c1cccc2cccc(S(=O)c3cccc4cccc(CO)c34)c12 (configuration not stated) is entered as 3.3
# Under NOMO-1 viab, CCOC(=O)C1=NNCC1C(=O)OCC (configuration not stated) is entered as 96.0*
# Under NOMO-1 viab, NC(=O)CSc1oc(-c2ccco2)nc1S(=O)(=O)c1ccccc1 is entered as -5.7

# More entries:
SMILES | NOMO-1 viab
C[C@@H]1CN([C@H](C)CO)C(=O)c2cccc(NC(=O)c3cnccn3)c2O[C@@H]1CN(C)C(=O)Nc1ccc(F)cc1 | 24.0
COc1ccc(NC(=O)CN(c2ccccc2F)S(C)(=O)=O)cc1Cl | 4.5
CC(C)NC(=O)N(C)C[C@@H]1Oc2ccc(NS(=O)(=O)c3ccc(F)cc3)cc2CC(=O)N([C@H](C)CO)C[C@@H]1C | 18.2
C[C@H](CO)N1C[C@H](C)[C@H](CN(C)S(C)(=O)=O)Oc2ccc(NC(=O)C3CCCCC3)cc2C1=O | 24.8
CNC[C@H]1Oc2c(NC(=O)NC3CCCCC3)cccc2C(=O)N([C@@H](C)CO)C[C@@H]1C | -9.8
CCOC(=O)N1CCN(C(=O)c2ccc3c(=O)n(CC4CCCO4)c(=S)[nH]c3c2)CC1 (configuration not stated) | 8.6
Nc1ccc(C(=O)CC2(O)C(=O)Nc3ccc(F)cc32)cc1 (configuration not stated) | 22.2
O=c1cc(-c2ccccc2)[nH]c(=S)[nH]1 | 0.9
C[C@H](CO)N1C[C@H](C)[C@H](CN(C)Cc2ccc(C(=O)O)cc2)Oc2ccc(NS(=O)(=O)c3cn(C)cn3)cc2CC1=O | 9.7
C[C@@H]1CN([C@@H](C)CO)C(=O)c2cc(NC(=O)Nc3ccccc3)ccc2O[C@H]1CN(C)Cc1ccc2c(c1)OCO2 | 4.6
CC(C)NC(=O)N(C)C[C@H]1Oc2ccc(NC(=O)Nc3cccc4ccccc34)cc2C(=O)N([C@@H](C)CO)C[C@H]1C | -29.1
O=c1cc(-c2ccccc2)nc2scc(-c3ccc(Cl)cc3)n12 | -12.8
CC(=O)Oc1ccc(NC(=O)COc2ccccc2)c(C(=O)O)c1 | 29.3
CC1(C)C(=O)C=C[C@@]2(C)C1CC(=O)[C@]1(C)C2CC[C@@]2(C)[C@H](c3ccoc3)OC(=O)[C@H]3O[C@]321 (some centres not stated) | 88.2*
CCOC(=O)c1c(NC(=O)Cc2cccc(OC)c2)sc2c1CCCC2 | 5.9
CCOc1ccc(N(Cc2cc3ccc(C)cc3[nH]c2=O)S(C)(=O)=O)cc1 | 17.1

# Among those listed so far, these contain a cyano group.
SMILES | NOMO-1 viab
CCOC(=O)C(C#N)C1(c2c(C)[nH]n(-c3ccccc3)c2=O)C(=O)N(c2ccccc2)N=C1C (configuration not stated) | 73.6
CCCCn1c(O)c(C#N)c(C)cc1=O | 1.1

# Following part.
SMILES | NOMO-1 viab
C[C@H](CO)N1C[C@H](C)[C@H](CN(C)S(=O)(=O)c2cn(C)cn2)Oc2ccc(NC(=O)Nc3ccc4c(c3)OCO4)cc2CC1=O | -7.2
COc1ccc(-n2c(C)nnc2SCC(=O)Nc2cccc(C(F)(F)F)c2)cc1 | -5.2
C[C@@H]1CN([C@H](C)CO)C(=O)Cc2cc(NC(=O)Nc3ccccc3)ccc2O[C@H]1CN(C)C(=O)NC1CCCCC1 | 6.8
Cc1noc(C)c1S(=O)(=O)Nc1ccc2c(c1)C(=O)N([C@@H](C)CO)C[C@@H](C)[C@H](CN(C)Cc1ccc(Cl)c(Cl)c1)O2 | 32.6
C[C@@H]1CN([C@@H](C)CO)C(=O)c2cccc(NC(=O)c3nc4ccccc4s3)c2O[C@H]1CN(C)C(=O)Nc1ccc2c(c1)OCO2 | -2.3
C[C@@H]1CN([C@@H](C)CO)C(=O)Cc2cc(NS(C)(=O)=O)ccc2O[C@@H]1CN(C)Cc1ccc(C(F)(F)F)cc1 | 9.4
C[C@@H]1CCCCO[C@H](CN(C)Cc2ccc3c(c2)OCO3)[C@@H](C)CN([C@H](C)CO)C(=O)c2cc(NS(=O)(=O)c3ccc(Cl)cc3)ccc2O1 | 87.2*
C[C@@H]1CN([C@H](C)CO)C(=O)c2cccc(NC(=O)Nc3cccc4ccccc34)c2O[C@@H]1CN(C)C | 27.6
C[C@@H]1CN([C@H](C)CO)C(=O)c2cccc(NS(C)(=O)=O)c2O[C@@H]1CN(C)S(C)(=O)=O | 10.3
Cc1noc(C)c1NC(=O)N(C)C[C@H]1Oc2c(NS(=O)(=O)c3ccc(Cl)cc3)cccc2C(=O)N([C@@H](C)CO)C[C@@H]1C | 12.0
CCOc1ccc(NC(=O)CCNC(=O)c2cn(-c3cccc(OC)c3)c(=O)c3ccccc23)cc1 | 7.8
Cc1ccc(NC(=O)c2sc3ncn(CC(=O)Nc4cc(C(F)(F)F)ccc4Cl)c(=O)c3c2C)c(C)c1 | 32.0
Cc1ccc(S(=O)(=O)Nc2cccc3c2O[C@H](CN(C)C(=O)Nc2ccccc2)[C@@H](C)CN([C@@H](C)CO)C3=O)cc1 | 12.9
CNC(=O)NC(=O)CSc1nnc(-c2ccncc2)n1Cc1ccccc1 | -5.8
CC(C)NC(=O)N(C)C[C@H]1Oc2ccc(NS(=O)(=O)c3cccs3)cc2CC(=O)N([C@@H](C)CO)C[C@H]1C | 14.9
Cc1cccc(OCC(=O)Nc2ccc(Cl)c(-c3nc4ccc(C)cc4o3)c2)c1 | 28.8
C[C@@H]1CN([C@@H](C)CO)C(=O)c2cc(NC(=O)CCC(F)(F)F)ccc2O[C@H]1CN(C)C | 14.5
CC(C)NC(=O)N(C)C[C@@H]1Oc2c(NS(C)(=O)=O)cccc2C(=O)N([C@@H](C)CO)C[C@@H]1C | 11.4
Cc1ccc(-c2csc3ncn(CC(=O)Nc4ccc(F)c(Cl)c4)c(=O)c23)cc1C | 26.2
CN(Cc1nc2ccccc2n1C)S(=O)(=O)c1ccc(F)cc1 | -6.3
C[C@@H]1CN([C@H](C)CO)C(=O)c2cccc(NS(=O)(=O)c3ccccc3)c2O[C@@H]1CN(C)C(=O)Nc1ccccc1 | -1.2
COc1ccc(S(=O)(=O)N(C)C[C@@H]2Oc3ccc(NC(=O)CCN4CCOCC4)cc3C(=O)N([C@@H](C)CO)C[C@H]2C)cc1 | 8.5
C[C@H](CO)N1C[C@H](C)[C@H](CN(C)C(=O)Nc2ccc3c(c2)OCO3)Oc2c(NC(=O)Nc3cccc4ccccc34)cccc2C1=O | 39.4
Cc1ccc(NC(=O)CSc2nc3sc(C)c(C)c3c(=O)n2-c2ccc(C)c(C)c2)cc1 | 26.0
C[C@H]1CN([C@@H](C)CO)C(=O)Cc2cc(NS(=O)(=O)c3ccc(Cl)cc3)ccc2O[C@H]1CN(C)S(=O)(=O)c1ccc(F)cc1 | 15.9
Cc1ccc([N+](=O)[O-])cc1NC(=O)CSc1nnc(-c2ccncc2)n1-c1ccccc1 | 33.1
COc1ccc(NC(=O)Nc2ccc3c(c2)CC(=O)N([C@H](C)CO)C[C@@H](C)[C@@H](CN(C)Cc2ccc(C(F)(F)F)cc2)O3)cc1 | 90.2*
C[C@@H]1CN([C@H](C)CO)C(=O)Cc2cc(NC(=O)Nc3ccc4c(c3)OCO4)ccc2O[C@H]1CN(C)S(=O)(=O)c1cccs1 | 10.9
COc1ccc(S(=O)(=O)N(C)C[C@@H]2Oc3ccc(NS(=O)(=O)c4ccc(C)cc4)cc3CC(=O)N([C@@H](C)CO)C[C@@H]2C)cc1 | 4.9
CCn1c(SCC(=O)N2CCOCC2)nnc1-c1c[nH]c2ccccc12 | -5.7
Cc1ccc(S(=O)(=O)N(C)C[C@H]2Oc3ccc(NC(=O)Nc4ccc(F)cc4)cc3CC(=O)N([C@@H](C)CO)C[C@@H]2C)cc1 | 41.1
C[C@H]1CN([C@@H](C)CO)C(=O)Cc2cc(NC(=O)NC3CCCCC3)ccc2O[C@H]1CN(C)S(=O)(=O)c1cccs1 | 8.8
C[C@H]1CN([C@@H](C)CO)C(=O)c2cc(NC(=O)NC3CCCCC3)ccc2O[C@H]1CN(C)C(=O)Nc1ccc2c(c1)OCO2 | 13.3

# A portion of the library. The share of hits here may be higher or lower than overall.
